Screening data as filed in PubChem.
Ecoli rRNA inh: selective bacterial rRNA inhibition in E. coli; AID 720706; E. coli WT GFP vs humanized-ribosome RFP mutants, fluorescence, 24 h; hits give low values; DMSO median 0, no signal -100; GFP signal change (wild-type ribosome), % (test concentration not listed); hit rate 1.6% among 350,000;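 active = significant combined selectivity score with lowered wild-type GFP, culture density cut under 30%, mutant RFP and density less affected; inactive = any of these conditions unmet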; note: one replicate is shown; some compounds called inactive have numbers as strong as hits
AF4-AF9 inh: blocks AF4 peptide binding to human AF9 | P42568 | AlphaScreen, biotin-AF4 peptide binding to FLAG-AF9 | inhibition, % at 10 µM | hit rate 0.47% among 350,000 | AID 651704;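 active = every replicate reaching a set inhibition limit, whatever the replicate mean, cut at about 25% in these data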;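 note: 0% = plate neutral control median and 100% = total signal loss; the record names both 10 and 1 µM as test concentration; the first replicate is given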
Target sequence (P42568 whole entry, looked up): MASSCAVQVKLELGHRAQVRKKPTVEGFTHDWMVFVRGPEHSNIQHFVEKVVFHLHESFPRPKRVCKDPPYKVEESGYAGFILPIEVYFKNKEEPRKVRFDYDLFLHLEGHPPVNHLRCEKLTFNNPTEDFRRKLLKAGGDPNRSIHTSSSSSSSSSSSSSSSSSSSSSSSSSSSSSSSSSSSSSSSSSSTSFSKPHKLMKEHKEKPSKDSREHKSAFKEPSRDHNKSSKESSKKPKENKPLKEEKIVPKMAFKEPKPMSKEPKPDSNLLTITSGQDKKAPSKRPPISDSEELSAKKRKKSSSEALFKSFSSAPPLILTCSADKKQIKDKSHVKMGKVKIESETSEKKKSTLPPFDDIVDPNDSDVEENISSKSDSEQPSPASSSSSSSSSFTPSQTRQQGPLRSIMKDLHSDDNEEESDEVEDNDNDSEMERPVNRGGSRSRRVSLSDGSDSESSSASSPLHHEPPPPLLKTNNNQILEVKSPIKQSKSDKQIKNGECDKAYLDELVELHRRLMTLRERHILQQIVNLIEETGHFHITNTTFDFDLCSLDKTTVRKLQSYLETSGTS
Ecoli rRNA inh OD600: recorded beside Ecoli rRNA inh, whose call it bears; OD600 change, %; measured here: OD600 growth;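 optical density of the mix in the first replicate; 0 = DMSO median and -100 = no signal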
Ecoli rRNA inh RFP: further read-out of Ecoli rRNA inh, marked with its call; RFP signal change, %; measured here: RFP humanized mutant strains;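 first replicate; 0 = DMSO median and -100 = no signal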
An asterisk follows results filed as active; & = joins results of further samples.

Ecoli rRNA inh,Ecoli rRNA inh OD600,Ecoli rRNA inh RFP,AF4-AF9 inh,compound
2.8,32.1,-0.6,2.2,CN(C)C(=O)c1ccc(-c2ccc3c(c2)[C@H]2[C@H](CCN2C(=O)c2cnccn2)[C@@H](CO)N3)cc1
2.7,-16.5,10.1,9.1,C[C@H](CO)N1C[C@H](C)[C@@H](CN(C)CC2CCCC2)Oc2ncc(C#Cc3cccc(F)c3)cc2C1=O
-3.7,-4.8,-0.4,-0.1,COc1ccccc1NC(=O)N1C[C@@H](C)[C@H](OC)CN(C)C(=O)c2ccc(NC(=O)c3cc(C)on3)cc2OC[C@H]1C
-1.6,-4.2,-0.4,0.1,Cc1noc(C)c1S(=O)(=O)N(C)C[C@H]1Oc2ccc(NC(=O)C3CCCCC3)cc2CC(=O)N([C@H](C)CO)C[C@@H]1C
-5.5,-9.1,-4.6,1.3,Cc1noc(C)c1S(=O)(=O)Nc1ccc2c(c1)C(=O)N([C@@H](C)CO)C[C@@H](C)[C@H](CN(C)C(=O)Nc1ccc(C(F)(F)F)cc1)OCCCC[C@H](C)O2
0.1,9.1,3.0,2.3,C/C=C/c1ccc([C@@H]2[C@@H](CO)N3C(=O)CN(C(=O)Nc4ccc(F)cc4)C[C@@H]23)cc1
0.8,1.0,0.7,-6.5,Cc1ccc(S(=O)(=O)Nc2ccc3c(c2)CC(=O)N([C@H](C)CO)C[C@@H](C)[C@H](CN(C)Cc2ccc(Oc4ccccc4)cc2)O3)cc1
0.7,6.9,2.2,4.4,CCS(=O)(=O)N1CC(=O)N2[C@@H](CO)[C@H](c3ccc(C#CCC(C)C)cc3)[C@@H]2C1
1.6,0.8,-3.3,0.5,Cc1ccc(S(=O)(=O)NCC[C@@H]2CC[C@@H](NC(=O)Nc3ccccc3F)[C@@H](CO)O2)cc1
-3.1,-6.7,2.1,1.5,CCC(=O)N1CCC2(CC1)CN(C(=O)Cc1ccccc1)[C@H](CO)c1c2c2ccc(OC)cc2n1C
-35.1,-64.3,7.0,-14.2,O=C(Nc1ccc(F)cc1)N1CC(=O)N2[C@H](C1)[C@H](c1ccc(-c3cccc(F)c3)cc1)[C@@H]2CO
1.5,4.1,-1.3,-3.5,CO[C@H]1CN(C)C(=O)c2ccc(NC(=O)NC(C)C)cc2OC[C@H](C)N(C(=O)CN(C)C)C[C@H]1C
2.8,11.3,-3.2,-1.8,C[C@H](CO)N1C[C@H](C)[C@H](CN(C)Cc2ccc(C(F)(F)F)cc2)Oc2c(NS(=O)(=O)c3cn(C)cn3)cccc2C1=O
-0.2,10.0,-4.2,2.0,COc1ccc(C2=Nc3ccccc3N(C(=O)c3ccc(C(F)(F)F)cc3)C2C(=O)Nc2c(C)cccc2C)cc1 (configuration not stated)
4.4,11.8,-2.7,-2.9,COCC(=O)N(C)C[C@H]1Oc2ncc(C#C[C@@H](C)O)cc2C(=O)N([C@H](C)CO)C[C@@H]1C
2.2,3.9,1.5,-1.5,C[C@H]1CN([C@@H](C)CO)C(=O)c2cccc(NC(=O)c3ccncc3)c2O[C@@H]1CN(C)S(=O)(=O)c1cn(C)cn1
6.8&8.5,12.1&12.1,-0.8&-0.7,-2.3&-1.4&-1.1,C[C@@H]1CN([C@@H](C)CO)C(=O)c2cc(Br)cnc2O[C@H]1CN(C)C(=O)Nc1ccccc1
-4.0,-1.4,6.4,3.1,Cc1csc(-c2nc3ccccc3n2C(C(=O)NC(C)(C)C)c2cc3ccccc3o2)c1 (configuration not stated)
-1.8,5.9,-0.5,0.0,CC(=O)N(C)C[C@@H]1Oc2cc(C#Cc3ccccn3)ccc2S(=O)(=O)N([C@H](C)CO)C[C@H]1C
0.0,-1.1,-0.5,-0.4,CCNC(=O)[C@@H]1[C@@H](CO)[C@@H]2Cn3c(ccc(-c4ccncc4)c3=O)[C@H]1N2CC1CC1
-21.3,-49.5,-2.5,3.0,COc1cccc(Cn2c(C(C)n3c(-c4cnccn4)nc4ccccc43)nc3ccccc32)c1 (configuration not stated)
5.3,6.4,1.0,0.6,O=C(NC1CCCC1)[C@H]1[C@H](CO)[C@H]2Cn3c(ccc(C4=CCCC4)c3=O)[C@@H]1N2C(=O)c1ccccc1
-3.4,7.2,2.1,1.8,CCCC#Cc1ccc([C@@H]2[C@@H](CO)N3C(=O)CN(C(=O)Nc4ccccc4F)C[C@H]23)cc1
0.3,-0.8,0.6,-2.3,Cc1ccc(S(=O)(=O)N(C)C[C@@H]2Oc3ncc(C#Cc4ccccc4)cc3C(=O)N([C@H](C)CO)C[C@@H]2C)cc1
-6.3,-28.6,-4.3,0.5,CCc1csc(N2[C@H](C#N)[C@@H](c3ccc(-c4cccc(F)c4)cc3)[C@H]2CO)n1

The closing 2 compounds of the part before are carried over, then new ones follow:
Ecoli rRNA inh,Ecoli rRNA inh OD600,Ecoli rRNA inh RFP,AF4-AF9 inh,compound
0.3,-0.8,0.6,-2.3,Cc1ccc(S(=O)(=O)N(C)C[C@@H]2Oc3ncc(C#Cc4ccccc4)cc3C(=O)N([C@H](C)CO)C[C@@H]2C)cc1
-6.3,-28.6,-4.3,0.5,CCc1csc(N2[C@H](C#N)[C@@H](c3ccc(-c4cccc(F)c4)cc3)[C@H]2CO)n1
2.4,16.6,-2.7,0.0,CC(C)C[C@H](NC(=O)CC[C@H]1O[C@@H](n2ccc(=O)[nH]c2=O)[C@H](O)[C@@H]1O)C(=O)O
64.3,-28.0,8.4,3.3,CN(C)c1ccccc1-c1cc(NC=O)c2ncc(-c3cccc(C(F)(F)F)c3)n2c1
-11.1,-4.6,-1.5,-0.4,C[C@@H]1CN([C@@H](C)CO)C(=O)c2cc(NC(=O)Nc3ccc(C(F)(F)F)cc3)ccc2O[C@H]1CN(C)Cc1ccc(C(=O)O)cc1
-2.5,-6.1,-0.3,-1.0,COc1ccc(S(=O)(=O)Nc2ccc3c(c2)C(=O)N([C@@H](C)CO)C[C@H](C)[C@H](CN(C)Cc2ccncc2)O3)cc1
-2.4,1.1,-5.3,-0.2,CCOC(=O)c1cc(OCC)c2c(ccc3cc(OC)ccc32)n1
-3.0,-12.8,-3.6,1.5,O=C(C[C@@H]1CC[C@@H]2[C@H](COC[C@H](O)CN2Cc2cccc(F)c2)O1)NCC1CCCCC1
-6.4,-14.2,13.6,-3.7,O=C(N[C@H]1CC[C@H](CCNS(=O)(=O)c2ccc(Cl)cc2)O[C@H]1CO)c1cccc(F)c1
1.3,-16.7,-2.6,-6.0,C[C@@H](O)C#Cc1ccc2c(c1)O[C@@H](CN(C)C(=O)C1CCCCC1)[C@@H](C)CN([C@@H](C)CO)S2(=O)=O
-2.7,-0.3,5.6,4.0,C[C@@H]1CN([C@@H](C)CO)C(=O)Cc2cc(NC(=O)Nc3ccccc3)ccc2O[C@@H]1CN(C)S(=O)(=O)c1ccc(F)cc1
2.3,-0.4,0.0,-3.0,Cc1noc(C)c1NC(=O)N(C)C[C@H]1Oc2ccc(NC(=O)Cc3ccccc3)cc2CC(=O)N([C@@H](C)CO)C[C@H]1C
1.3,6.6,-0.5,-3.4,COc1ccccc1S(=O)(=O)N[C@@H]1CC[C@@H](CC(=O)NCc2cc(F)cc(F)c2)O[C@H]1CO
5.8,8.3,-2.9,0.9,CC(C)c1cc(Cn2c3ccccc3c(=O)n2C(C)Cn2cc(CCCC#N)nn2)on1 (configuration not stated)
-33.0,-49.2,27.7,7.7,CC(C)C#Cc1ccc2c(c1)O[C@@H](CN(C)Cc1ccncc1)[C@H](C)CN([C@H](C)CO)S2(=O)=O
-6.6,-2.0,-2.8,-0.9,CC(=O)N(C)C[C@H]1Oc2cc(-c3cccc(F)c3)ccc2S(=O)(=O)N([C@@H](C)CO)C[C@H]1C
0.7,10.0,-1.7,0.0,CN(C)C(=O)C[C@H]1C[C@@H]2c3cc(NC(=O)C4CCC4)ccc3O[C@@H]2[C@H](CO)O1
-25.2,-37.8,7.2,10.4,O=C(NCC[C@H]1CC[C@@H](NC(=O)C2CCCC2)[C@H](CO)O1)Nc1ccc(Cl)cc1
4.7,6.6,1.8,0.9,COC1=CC(=O)c2nc(Cl)ccc2C1=O
0.7,-0.8,-1.6,0.8,C[C@@H]1CCCCO[C@H](CN(C)C(=O)c2ccncc2)[C@H](C)CN([C@@H](C)CO)C(=O)c2cc(NC(=O)Cc3ccccc3)ccc2O1
-28.1,-34.5,-5.8,0.0,O=S1(=O)CC(N2CCC(c3ccccc3)CC2)CN1C1CCCCC1 (configuration not stated)
-4.2,-10.8,-2.6,-2.2,Cc1ccc(S(=O)(=O)N[C@@H]2C=C[C@@H](CC(=O)N3CCc4ccccc4C3)O[C@@H]2CO)cc1
-0.2,11.0,1.2,7.1,O=C(NCc1ccc2c(c1)OCO2)[C@H]1[C@H](CO)[C@H]2Cn3c(cccc3=O)[C@@H]1N2Cc1cncnc1
-7.5,-5.6,0.5,-0.5,C[C@@H]1CN([C@@H](C)CO)C(=O)c2cccc(N(C)C)c2O[C@H]1CN(C)S(=O)(=O)c1ccc(F)cc1
1.8,4.2,-0.2,-5.0,CCCc1ccc2ccc3ccccc3c2n1
5.1,-6.1,1.3,-0.5,COc1ccc(S(=O)(=O)Nc2ccc3c(c2)C(=O)N([C@H](C)CO)C[C@H](C)[C@H](CN(C)C(=O)Cc2ccccc2)OCCCC[C@@H](C)O3)cc1
-0.4,5.5,-1.8,-8.8,COc1ccccc1NC(=O)N1C[C@H](O)COC[C@@H]2O[C@@H](CC(=O)NCCc3ccccc3)CC[C@H]21

Next records follow:
Ecoli rRNA inh,Ecoli rRNA inh OD600,Ecoli rRNA inh RFP,AF4-AF9 inh,compound
3.5,-2.6,-1.9,-1.7,C[C@H](CO)N1C[C@H](C)[C@@H](CN(C)C(=O)C2CCCCC2)Oc2cc(-c3cncnc3)ccc2S1(=O)=O
-45.6,-71.1,0.5,0.8,O=C(C[C@H]1CC[C@@H]2[C@H](COC[C@H](O)CN2C(=O)Nc2cc(Cl)cc(Cl)c2)O1)NCC1CCCCC1
1.4,2.1,-1.9,-1.4,CCCC(=O)Nc1ccc2c(c1)C(=O)N(C)[C@H]1CC[C@@H](CC(=O)NCC3CC3)O[C@@H]1CO2
-56.0,-77.5,-16.7,10.2,CCCCc1c(-c2ccccc2OC)ncn1Cc1ccc(OC)cc1
-1.1,-2.9,1.1,-5.7,CO[C@H]1CN(C)C(=O)c2cc(NC(=O)NC(C)C)ccc2OC[C@H](C)N(C(=O)C2CCC2)C[C@H]1C
2.0,14.2,1.4,1.3,CC(CC(=O)Nc1ccc2c(c1)c(=O)n(C)n2Cc1cccc(C(F)(F)F)c1)C(F)(F)F (configuration not stated)
-3.3,4.0,0.1,-5.0,CC(C)NC(=O)Nc1ccc2c(c1)C(=O)N([C@@H](C)CO)C[C@@H](C)[C@H](CN(C)S(=O)(=O)c1ccccc1)O2
-11.6,-27.0,-1.6,0.5,CC1(C(=O)Nc2ccccc2)CCN1C(=O)Cc1ccc(-c2ccccc2)cc1 (configuration not stated)
3.6,2.5,-1.9,-2.7,C[C@@H]1CN([C@@H](C)CO)C(=O)c2cc(C3=CCCC3)cnc2O[C@@H]1CN(C)C(=O)C1CCCCC1
0.7,1.7,0.0,-3.5,C[C@H]1CN([C@@H](C)CO)C(=O)Cc2cc(NS(C)(=O)=O)ccc2O[C@H]1CN(C)C(=O)Nc1ccc(F)cc1
3.9,1.9,0.0,-2.8,Cc1ccc(S(=O)(=O)Nc2cccc3c2O[C@@H](CN(C)S(=O)(=O)c2ccc(Cl)cc2)[C@H](C)CN([C@@H](C)CO)C3=O)cc1
-0.7,-3.3,-0.9,0.2,C[C@@H]1CN([C@H](C)CO)C(=O)CCCn2nncc2CO[C@@H]1CN(C)CC1CC1
0.3,7.1,-1.5,-0.1,C[C@H]1CN([C@@H](C)CO)C(=O)Cc2cc(NC(=O)Cn3cnnn3)ccc2O[C@H]1CN(C)S(=O)(=O)c1cn(C)cn1
0.4,-5.9,4.2,-7.4,C[C@@H]1CCCCO[C@@H](CN(C)CC2CCCCC2)[C@@H](C)CN([C@@H](C)CO)C(=O)c2cc(NC(=O)Cc3ccccc3)ccc2O1
5.2,13.6,-1.7,-2.3,CNC[C@H]1OCCCC[C@H](C)Oc2ccc(NS(=O)(=O)c3ccc(F)cc3)cc2C(=O)N([C@H](C)CO)C[C@@H]1C
0.8,-1.8,2.8,-1.2,COc1ccc(S(=O)(=O)N(C)C[C@H]2Oc3ccc(NC(=O)CCC(F)(F)F)cc3CC(=O)N([C@H](C)CO)C[C@@H]2C)cc1
-2.0,-1.4,-0.8,5.2,CC(C)C#Cc1cnc2c(c1)C(=O)N([C@@H](C)CO)C[C@@H](C)[C@@H](CN(C)C(=O)Nc1ccc(F)cc1)O2

Some of these compounds in order of the Ecoli rRNA inh RFP value, lowest first:
Compound,Ecoli rRNA inh RFP
CCCCc1c(-c2ccccc2OC)ncn1Cc1ccc(OC)cc1,-16.7
C[C@@H]1CN([C@@H](C)CO)C(=O)c2cc(C3=CCCC3)cnc2O[C@@H]1CN(C)C(=O)C1CCCCC1,-1.9
CNC[C@H]1OCCCC[C@H](C)Oc2ccc(NS(=O)(=O)c3ccc(F)cc3)cc2C(=O)N([C@H](C)CO)C[C@@H]1C,-1.7
CC(C)C#Cc1cnc2c(c1)C(=O)N([C@@H](C)CO)C[C@@H](C)[C@@H](CN(C)C(=O)Nc1ccc(F)cc1)O2,-0.8
C[C@H]1CN([C@@H](C)CO)C(=O)Cc2cc(NS(C)(=O)=O)ccc2O[C@H]1CN(C)C(=O)Nc1ccc(F)cc1,0.0
COc1ccc(S(=O)(=O)N(C)C[C@H]2Oc3ccc(NC(=O)CCC(F)(F)F)cc3CC(=O)N([C@H](C)CO)C[C@@H]2C)cc1,2.8

These rows are one share of the data (hit frequency here may not be typical).
